Screening data deposited in PubChem by Southern Research Institute.
Mtb H37Rv: Mycobacterium tuberculosis H37Rv growth inhibition, cell based, confirmatory dose response (AID 1949); M. tuberculosis H37Rv growth inhibition; most inactive calls were filed without a number and no value below 0 was filed; 100,000 tested, 1.6% active; inhibition, % at 10 µg/mL; hits with a dose series show IC50 in µg/mL;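 active = confirmed in a dose series; inconclusive = about 50% or more but not retested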;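 note: bacteria grown 7 days with compound before Alamar blue readout; 0% = untreated bacteria and 100% = reference antibiotic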
Starred values were filed as active, the others as inactive; i = inactive; ? = inconclusive. Only part of the results is shown. The share of hits here may be higher or lower than overall.

SMILES,Mtb H37Rv
COC(=O)c1ccc(NC(=O)CCC(=O)c2ccc(Br)cc2)cc1,i
Cn1c(SCC(=O)c2ccc(F)cc2)nnc1C(O)c1ccccc1 (stereo not given),i
Cc1c(Br)ccc(NC(=O)c2ccccc2Cl)c1C,23%
C=C(C)c1cccc(C(C)(C)NC(=O)NCc2ccc(OC)c(OC)c2)c1,3%
O=C(Nc1ccccc1C(=O)NC1CCCCC1)c1cccc(Cl)c1,i
CCOc1ccc(S(=O)(=O)Nc2ccc(-c3csc(C)n3)cc2)cc1,i
C=CCn1c(SCC(=O)N2CCc3ccccc32)nc2sc(C)cc2c1=O,i
COC(=O)c1ccccc1NC(=O)C12CCC(C1)C(C)(C)C2=O (stereo not given),i
CCOc1ccccc1C1CC(c2cccs2)=NN1C(C)=O (stereo not given),2%
O=C(Nc1ccc(-c2nc3ncccc3o2)cc1)c1cccc(Cl)c1,9%
COc1ccc(NC(=O)Nc2ccccc2C(F)(F)F)cc1OC,i
COc1ccc(-c2nnc(N3CCC(C)CC3)c3ccccc23)cc1,1%
Cc1onc(-c2c(F)cccc2Cl)c1C(=O)N1CCC(C)CC1,i
CNS(=O)(=O)c1cc2c3c(cccc3c1)C(=O)NC2=O,i
CCOC(=O)C1CCN(C(=O)Cc2ccc(C)cc2)CC1,i
Cc1ccccc1NCc1nc2ccccc2n1C,i
COc1ccc(S(=O)(=O)NC2CCCC2)cc1C,i
C=CCn1c(=N)n(CC(O)c2ccc(-c3ccccc3)cc2)c2ccccc21 (stereo not given),43%
O=C(NC12CC3CC(CC(C3)C1)C2)c1cccc(I)c1,2%
COc1c(F)c(F)c(C(=O)NCc2ccc(-c3nc4ccccc4o3)cc2)c(F)c1F,i
Cc1ccc(NC(=O)COc2ccc(S(=O)(=O)NC(C)C)cc2)cc1,i
Cc1ccccc1C(=O)Nc1ccc2oc(-c3cccc(F)c3)nc2c1,i
CCn1c(Cc2ccccc2)nnc1SCc1ccc(Br)cc1,i
Cn1c(=O)c2c(nc(SCc3ccccn3)n2C)n(C)c1=O,i
CCOc1ccc(N(CC(=O)Nc2ccc(NC(C)=O)cc2)S(=O)(=O)c2ccc(OC)c(OC)c2)cc1,i
Cc1ccc(CN(CC(=O)NCc2ccco2)S(=O)(=O)c2ccc(Cl)cc2)cc1,i
COc1cc(NC(=S)N2CCN(c3ncccn3)CC2)cc(OC)c1,i
Cn1c(Cc2ccccc2)nnc1SCc1ccc(Br)cc1,i
CCc1cccc(CC)c1NC(=O)c1ccc(SC)cc1OC,i
O=C(CCc1ccccc1)Nc1ccc(N2CCN(C(=O)c3ccccc3F)CC2)cc1,i
Cc1cc(NC(=O)c2ccc(Cl)c(Cl)c2)c(C)cc1I,?
COc1cc2c(cc1NC(=S)NC(=O)c1ccc(F)cc1)oc1ccccc12,3%
CCOC(=O)COc1ccc2c(c1)c(C(=O)OCC)c(C)n2C,47%
NC(=S)NCC1CC(c2ccc(Cl)cc2Cl)=NO1 (stereo not given),41%
CC(C)N1CCN(C(=O)c2cccc(F)c2)CC1,i
Cc1cccc(-n2ncc3c(N4CCN(c5ccc([N+](=O)[O-])cc5)CC4)ncnc32)c1,i
CCOc1ccc(-n2c(C)nnc2SCC(=O)Nc2ccccc2F)cc1,i
O=Cc1[nH]c2ccccc2c1Nc1ccc([N+](=O)[O-])cc1,?
O=C(CCC1CCCC1)Nc1ccc(Cl)cn1,i
Cc1sc2nc(SCC(=O)Nc3ccc(N(C)C)cc3)[nH]c(=O)c2c1C,i
CCOC(=O)c1ccc(NC(=O)N2CC(C)OC(C)C2)cc1 (stereo not given),i
CCOc1cccc(/C=C/c2ccc3ccccc3n2)c1OC(C)=O,10%
Cc1ccc(S(=O)(=O)Nc2cccc(Br)c2)cc1[N+](=O)[O-],i
COc1cccc(NC(=O)COc2ccc(C(=S)N3CCN(C)CC3)cc2OC)c1,i
CC(=O)Nc1ccc(NC(=O)CN(c2ccc(C)c(Cl)c2)S(=O)(=O)c2ccc(C)cc2)cc1,i

A stretch from further up, as a working copy:
SMILES,Mtb H37Rv
Cc1cc(NC(=O)c2ccc(Cl)c(Cl)c2)c(C)cc1I,?
COc1cc2c(cc1NC(=S)NC(=O)c1ccc(F)cc1)oc1ccccc12,3%

Later entries:
SMILES,Mtb H37Rv
CC(=O)Nc1ccc(NC(=O)CSc2nc(-c3ccccc3)c(-c3ccccc3)o2)cc1,i
Nc1ccc2nc(-c3ccc(O)cc3)sc2c1,19%
COc1cccc2cc(C(=O)N3CCN(c4cccc(Cl)c4)CC3)c(=O)oc12,i
O=C(CCC1CCCCC1)NCc1ccc(Cl)cc1,i
Cc1ccc2c(ccc3nc(C)ccc32)n1,i
O=C(c1cccc([N+](=O)[O-])c1)c1nc2c(n1O)CCCCC2,1%
O=C(CCC1CCCCC1)N1CCN(c2ccc(F)cc2)CC1,i
Cc1cccc(-c2nc3n(n2)C(=O)CC(c2ccco2)S3)c1 (stereo not given),4%
O=c1oc2cc(OCc3ccccc3Cl)c(Cl)cc2c2c1CCC2,i
O=C(CCCn1c(=S)[nH]c2ccccc2c1=O)N1CC=C(c2ccccc2)CC1,i
COc1ccc(Cl)cc1NC(=O)CN(CCc1ccccc1)S(=O)(=O)c1ccc(C)cc1,2%
O=C(Nc1ccccn1)c1sc2cccc(F)c2c1Cl,i
COc1cc(OC)c(OC)cc1CNC1CCCCCC1,i
O=C(CSc1nnc(-c2ccccc2Cl)o1)Nc1nccs1,?
Cc1ccc2c(Cl)c(C(=O)Nc3sc4c(c3C(=O)NC3CCS(=O)(=O)C3)CCCC4)sc2c1 (stereo not given),i
C=C(C)CC(NCc1ccco1)c1ccc(OC)cc1 (stereo not given),i
CN(CC(=O)Nc1nccs1)S(=O)(=O)c1ccc(Br)cc1,i
O=c1c2c([nH]c3cc(Cl)ccc13)CCCC2,i
C=CCNC(=O)CN(c1cc(Cl)ccc1C)S(=O)(=O)c1ccc(C)cc1,1%
O=C(CCc1ccccc1)NNC(=O)CNC(=O)C1CCCCC1,i
CCOC(=O)c1c(C)n(Cc2ccco2)c2ccc(OCC)cc12,i
O=S(=O)(Nc1cccc(NS(=O)(=O)c2ccc(Cl)cc2)c1)c1ccc(Cl)cc1,i
Cc1ccc(-c2nc3cc(NC(=O)c4cccc([N+](=O)[O-])c4C)ccc3o2)cc1C,0%
CCCCOc1c(Cl)cc(CNCc2ccccc2)cc1OC,i
CCN1CCN(C(=O)Nc2ccc(F)c(Cl)c2)CC1,i
O=S1(=O)NC(=NC(c2ccccc2)c2ccccc2)c2ccccc21,i
Cc1ccc(C(=O)Nc2cc(C(F)(F)F)ccc2Cl)cc1Cl,i
COC(=O)c1c(N)n(-c2ccc(F)cc2F)c2nc3ccccc3nc12,i
COc1ccc(-n2nnnc2SCC(=O)NCc2ccccc2)cc1,i
COc1ccc(CCC(=O)Nc2cc(C(F)(F)F)ccc2Cl)cc1,i
CC(Oc1ccccc1)C(=O)N1CCN(C(c2ccccc2)c2ccccc2)CC1 (stereo not given),i
Cc1ccccc1CSCCNS(=O)(=O)c1ccc(C)c([N+](=O)[O-])c1,1%
O=C(Nc1nc(-c2ccc(Cl)cc2)cs1)c1ccc(-c2ccccc2[N+](=O)[O-])o1,6%
COc1ccc(S(=O)(=O)N(CC(=O)Nc2cc([N+](=O)[O-])ccc2OC)c2ccc(C)cc2)cc1,i
CC1CN(C(=S)c2ccc(Cl)c(Cl)c2)CC(C)O1 (stereo not given),i
N/C(=N\OC(=O)Cc1cccs1)c1ccc([N+](=O)[O-])cc1,i
O=C(Nc1ccc(N2CCOCC2)c(Cl)c1)c1ccc2c(c1)OCO2,9%
CCOCCc1nnc(NC(=O)c2ccc(Cl)cc2)s1,i
COC(=O)c1c(NC(=O)CSc2ncn[nH]2)sc2c1CCCC2,i
COc1ccc(OC(=O)CN2C(=O)c3ccccc3C2=O)cc1,i
CCOC(=O)Nc1cccc(NC(=O)c2ccc(Cl)c(Cl)c2)c1,i
COc1ccc(NC(=S)NC(=O)C(C)Oc2ccc(Cl)cc2Cl)c([N+](=O)[O-])c1 (stereo not given),i
COc1ccc(COc2ccc3c(c2)oc(=O)c2cc(OC)ccc23)cc1,i
O=C(c1cc(-c2cccnc2)nc2ccc(Br)cc12)N1CCN(c2ncccn2)CC1,i
CCCc1cc(=O)oc2cc(OC(C)C)ccc12,5%
CC(C)(C)Nc1nc(NC(C)(C)C)nc(N2CCOCC2)n1,8%
CC(c1ccccc1)N1C(=O)C2C3C=CC(C3)C2C1=O (stereo not given),i
Cc1ccc(N2C(=O)CC(Sc3ncccc3C(=O)O)C2=O)c([N+](=O)[O-])c1 (stereo not given),i
CCOc1ccc(S(=O)(=O)N2CCC(C(N)=O)CC2)cc1,i
CCOc1ccc(NC(=S)Nc2ccc3cc4ccccc4nc3c2)cc1,1%
CCOc1ccc(C2C3=C(CCCC3=O)N(C)C3=C2C(=O)CCC3)cc1Cl,i
O=C(CN1C(=O)c2cccc3cccc(c23)C1=O)N1CCCCCC1,0%
O=C(c1cccc(F)c1F)N1CCOCC1,4%
COC(=O)c1ccc(NC(=O)c2ccccc2N(Cc2ccccc2)S(=O)(=O)c2ccc(OC)cc2)cc1,12%
CCOC(=O)C1=C(C)NC2=C(C(=O)CC(C)(C)C2)C1c1cccs1 (stereo not given),3%
O=C(Cc1cccc2ccccc12)NC(=S)Nc1ccc(N2CCCC2=O)cc1,i
COc1ccc(C(=O)Nc2cccc(C)n2)c(OC)c1OC,i
CC1(C)CC(=O)C2=C(C1)OC1=C(C(=O)CC(C)(C)C1)C21C(=O)Nc2ccccc21,i
CCOC(=O)N1CCN(C(=O)C(C)N(c2ccc(Oc3ccccc3)cc2)S(C)(=O)=O)CC1 (stereo not given),i
O=C(CCSc1ccc(Cl)cc1)Nc1ccccc1C(=O)NC1CCCCC1,i

Part of the list above in order of SMILES length, ascending:
SMILES,Mtb H37Rv
CC(c1ccccc1)N1C(=O)C2C3C=CC(C3)C2C1=O (stereo not given),i
O=C(CN1C(=O)c2cccc3cccc(c23)C1=O)N1CCCCCC1,0%
O=C(Cc1cccc2ccccc12)NC(=S)Nc1ccc(N2CCCC2=O)cc1,i

Continued.
SMILES,Mtb H37Rv
Cc1cc(C)c2nc(NC(=O)Cc3ccccc3)sc2c1,i
Cc1cnc(NC(=O)CSc2nnc(Cc3ccccc3)o2)s1,3%
COc1cccc(S(=O)(=O)Nc2ccccc2OC)c1,i
O=C(CSc1nnc(-c2ccccc2Cl)o1)Nc1ccc(F)cc1,i
CSc1cccc(NC(=O)C2COc3ccccc3O2)c1 (stereo not given),i
CCOC(=O)CNc1ccc(I)cc1,27%
C=CCn1c(SCc2ccc(Br)cc2)nnc1-c1cccc(C)c1,4%
O=C(CN1C(=O)c2ccccc2C1=O)Nc1ccccc1-c1ccccc1,3%
CCN(CC)C(=O)c1sc(NC(=O)c2ccccc2F)c(C#N)c1C,i
CCn1c(SCC(=O)Nc2ccc(S(=O)(=O)Nc3nccc(C)n3)cc2)nnc1-c1ccccc1Br,i
OCCNc1nc(Nc2ccc(O)cc2)nc2ccccc12,i
CC(C)N1CC(C(=O)Nc2ccc(F)c(Cl)c2)CC1=O (stereo not given),1%
CCOC(=O)COc1ccc(S(=O)(=O)N2CCN(c3cccc(Cl)c3)CC2)cc1,i
Cc1ccc(C(=O)Nc2c(C(=O)N(C)C)cnn2-c2ccccc2)cc1,i
COCCNC(=O)c1ccc(NS(C)(=O)=O)cc1,i
COc1ccc(S(=O)(=O)Nc2ccccc2SC)cc1Cl,i
CCc1c(C)sc(NC(=S)Nc2nc(C)cc(C)n2)c1C(=O)OC,i
CSc1cccc(NC(=O)c2ccco2)c1,i
Cc1cc(C)n(C(CC(=O)O)C(=O)O)n1 (stereo not given),i
COc1ccccc1C(=O)Oc1ccc2c(=O)c(-c3nc4ccccc4s3)coc2c1,i
CCCCOc1ccc(C2C(C(=O)c3ccc(C)o3)=C(O)C(=O)N2CC2CCCO2)cc1 (stereo not given),i
O=C(CN(Cc1ccc(F)cc1)S(=O)(=O)c1ccc(Cl)cc1)NC1CC1,5%
Cc1ccc(C(=O)Nc2ccc3oc(-c4ccc(F)cc4)nc3c2)cc1,i
CC(=O)Nc1ccc(-c2nnc(SCC(=O)NC(c3ccccc3)c3ccccc3)n2C)cc1,i
CC(O)c1nc2ccccc2n1CCc1ccccc1 (stereo not given),1%
O=S(=O)(Nc1ccc(-c2nc3ccccc3o2)cc1)c1ccc(Cl)cc1,i
CNc1cc(N2CCN(C(=O)Cc3ccccc3)CC2)ccc1[N+](=O)[O-],i
COc1ccc(CCNC(=O)Nc2ccc(C)cc2)cc1,i
COc1ccc(S(=O)(=O)Nc2ccc(Cl)cc2Cl)cc1C,i
O=C(Nc1cccc(Br)c1)c1ccc(N2CCCC2)c([N+](=O)[O-])c1,0%
CCOc1ccc(C(=O)Nc2ccc(NC(=O)c3cc4ccccc4o3)c(C)c2)cc1Br,i
CCc1ccc(-c2csc(-c3ccc(O)cc3)n2)cc1,i
COC(=O)C1=CN(C)C=C(C(=O)OC)C1c1ccc(OC)c(Br)c1,i
Cc1sc(NC(=O)COc2ccc3c(C)cc(=O)oc3c2)c(C#N)c1C,5%
COC(=O)c1ccccc1NC(=O)C(C)c1ccc([N+](=O)[O-])cc1 (stereo not given),2%

Some of the entries above, set out differently:
Cc1sc(NC(=O)COc2ccc3c(C)cc(=O)oc3c2)c(C#N)c1C
  Mtb H37Rv: 5%

COC(=O)c1ccccc1NC(=O)C(C)c1ccc([N+](=O)[O-])cc1 (stereo not given)
  Mtb H37Rv: 2%
